Screening results deposited in PubChem BioAssay by several laboratories.
PKD1 kinase inh: PKD1 (human) kinase inhibition. Q15139. PKD1 kinase fluorescence polarization assay. inhibition, %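 (about 10 µM by stock and volumes)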. 0.056% of 200,000 active. AID 797;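 active = inhibition of 50% or more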;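 also: controls were vehicle for no effect and a reference inhibitor for full effect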
RGS16-Gao HTS: RGS16-Galphao interaction regulator (human) | O15492+P09471 | bead-based flow cytometry RGS16-Galphao binding, fluorescence; actives lie on both sides | binding response (% of control), % at 10 µM | 0.38% of 220,000 active | AID 1441;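 active = below 25% or above 175%, edge rows of some plates excepted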;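 also: Galphao activated by GDP with aluminum fluoride before binding; 100% = wells without compound and 0% = beads without RGS; some results beyond the cut were filed as inactive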
Target sequence (O15492 whole entry, looked up): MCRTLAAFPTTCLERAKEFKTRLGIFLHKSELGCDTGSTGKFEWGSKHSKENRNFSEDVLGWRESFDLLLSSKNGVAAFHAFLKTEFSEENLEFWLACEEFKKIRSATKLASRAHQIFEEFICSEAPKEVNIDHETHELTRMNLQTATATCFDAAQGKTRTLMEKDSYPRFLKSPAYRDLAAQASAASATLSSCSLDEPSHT
Target sequence (P09471 whole entry, looked up): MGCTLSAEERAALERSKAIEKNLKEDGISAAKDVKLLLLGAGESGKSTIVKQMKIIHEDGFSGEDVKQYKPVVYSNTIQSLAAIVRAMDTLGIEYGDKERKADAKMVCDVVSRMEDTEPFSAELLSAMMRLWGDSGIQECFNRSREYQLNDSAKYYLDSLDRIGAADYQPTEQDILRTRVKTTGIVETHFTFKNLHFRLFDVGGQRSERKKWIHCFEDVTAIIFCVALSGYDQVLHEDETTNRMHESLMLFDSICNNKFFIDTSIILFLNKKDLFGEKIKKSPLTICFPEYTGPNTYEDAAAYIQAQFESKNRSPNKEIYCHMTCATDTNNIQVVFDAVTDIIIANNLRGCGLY
INS promoter inh: TRM-6 insulin promoter activity inhibition; TRM-6 cells (human fetal islet line), insulin promoter-eGFP reporter, imaging; reporter expression induced with tamoxifen; inhibition, % at 2 µM; 0.9% of 130,000 active;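 active = inhibition above the mean plus 3 SD, with well images judged a real hit on visual review, cut at about 60% in these data, passing the limit was not always enough; inconclusive = inhibition over the cutoff but images rejected on review; inactive = inhibition not above the cutoff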
HSV augment: increases HSV replication in cells; HSV replication augmentation in cells, fold increase; maximum fold increase; 0.005% of 220,000 active;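 active = peak rise of 1.5-fold or more in the series; inconclusive = self-fluorescent or not available for retest; tested in PC3 cells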;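 also: first round at 10 µM; read as green reporter fluorescence; hits show the peak of a series up to 25 µM; 1 = signal of infected wells without compound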
GALR2 ag: agonists of human galanin receptor 2 (GALR2); 0.48% of 140,000 active; O43603; AID 803; activation, %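 (tested at 5 µM)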; GALR2-expressing cells, agonist activation read-out;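 active = above mean plus 3 SD of all compounds, about 5% in these data, not always enough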;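 also: 0% = vehicle buffer wells and 100% = reference agonist at full effect; tested in CHO reporter cells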
INS promoter inh cell count: further read-out of INS promoter inh, marked with its call; normalized cell count, %; measured here: cell count, toxicity; reference of the scale not given here;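 cells exposed to compound for 48 h; stained nuclei by imaging scaled within each plate; lower means fewer cells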
HSV augment primary fold: also measured in HSV augment; calls as there; fold increase; compound at 10 µM; measured here: primary screen fold increase 10 uM; tested in PC3 cells;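 GFP signal in the first replicate; 1 = infected wells without compound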
* hit, by the source's call; i = inactive; ? = inconclusive; . = no result given.

mol,PKD1 kinase inh,RGS16-Gao HTS,INS promoter inh,INS promoter inh cell count,HSV augment,HSV augment primary fold,GALR2 ag
CC(C)n1nc(C(=O)OCn2nnc3ccccc3c2=O)c2ccccc2c1=O,-10,127,.,.,i,1,-0.6
Cc1cc(NC(=O)c2ccc(N3CCCC3)c([N+](=O)[O-])c2)no1,-2,96,.,.,i,1,.
COc1ccc(-c2noc(CN(C)Cc3ccc(C)o3)n2)cc1,-3,95,.,.,i,0.95,.
O=C(O)CCCNS(=O)(=O)c1ccc(F)cc1,-3,101,.,.,i,0.87,-1.2
COc1ccc(-n2nc(C(=O)NCC(=O)NCC3COc4ccccc4O3)c3ccccc3c2=O)cc1 (configuration not stated),7,104,.,.,i,0.8,.
CCC(C)Nc1nc2c(c(=O)n(C)c(=O)n2C)n1Cc1ccc(Cl)cc1 (configuration not stated),.,104,.,.,i,0.89,.
COC(=O)C(C)Sc1nc2c(c(=O)n(C)c(=O)n2C)n1Cc1cccc(C)c1 (configuration not stated),-7,98,-3,90,i,1,0.2
O=C(CN1CCN(c2nc(-c3ccc(F)cc3)cs2)CC1)NCc1ccc2c(c1)OCO2,-5,106,-34,42,i,0.81,0.2
Cc1ccccc1-n1cc(C(=O)c2cc(Cl)ccc2O)cc(C#N)c1=O,-5,99,-30,99,?,.,-0.6
CC1CC(c2ccccc2)n2nc(N3C(=O)c4ccccc4C3=O)nc2N1 (configuration not stated),0,96,42,124,i,0.87,-1.5
Cc1[nH]nc2c1C(c1ccc(-c3ccccc3C#N)o1)C(C#N)=C(N)O2 (configuration not stated),-2,91,-29,112,i,0.82,-0.9
NC(=O)COC(=O)c1ccc(Cl)c(S(=O)(=O)N2CCN(c3ccc(F)cc3)CC2)c1,-5,103,.,.,i,1,.
O=C(N/N=C\c1ccc(-c2cccc(Cl)c2)o1)C(=O)NC1CCCC1,-8,110,.,.,i,0.81,.
COc1cccc(/C=N/NC(=O)C(=O)Nc2ccccc2OC(F)(F)C(F)F)c1,1,119,18,62,i,1,0.6
CCOCCn1c(CN2CCN(c3cccc(Cl)c3)CC2)nc2c1c(=O)n(C)c(=O)n2C,-1,101,.,.,i,0.96,-0.6
CCOC(=O)N1CCC(NC(=O)c2ccc3c(c2)sc2nc(-c4cccc(OC)c4)cn23)CC1,-4,100,4,104,.,.,0.4
CCCC1C2C(=O)N(c3ccccc3OC)C(=O)C2ON1c1ccccc1 (configuration not stated),2,97,11,80,i,1,-0.4
O=C(Nc1ccc(S(=O)(=O)N2CCOCC2)cc1)c1cccnc1,.,93,.,.,i,1.1,.
O=C(CSc1nc2ccccc2o1)N1CCCC1,3,100,0,62,i,0.92,-1.5
COc1ccc(-c2nc(N)nc(C(F)(F)F)c2-c2cscn2)c(O)c1,.,102,.,.,i,0.99,.
COC(=O)CCCC1=CC2=CC(=O)C(C)(OC(=O)c3cccs3)C(=O)C2=CN1C1CC1 (configuration not stated),.,93,.,.,i,0.85,.
S=C(NC1CCCC1)N1CCOCC1,-4,103,43,123,i,0.97,.
COc1ccccc1Oc1ccc(N/C=C/C(=O)C(C)(C)C)cc1,-5,92,.,.,i,0.8,.
CCC(=O)Nc1ccc(-c2nnc(SCC(=O)N3CCCCC3)n2C)cc1,0,100,-3,135,i,0.95,-1.1
O=C(Nc1ccc2c(c1)OCO2)c1cnn2c1NC(c1ccco1)CC2C(F)(F)F (configuration not stated),-6,103,-55,128,i,0.85,-2.5
Cc1cc(C(=O)COc2cccc3cccnc23)c(C)n1C,-6,100,-4,113,i,1.4,0.0
N#Cc1ccccc1Cn1c(=O)n(CCCC(=O)NCc2ccc3c(c2)OCO3)c(=O)c2ccccc21,-4,81,0,99,i,0.91,-0.8
CC(=O)C1=C(C)NC(=O)NC1c1ccc(Cl)cc1 (configuration not stated),-1,98,-23,106,i,1.1,.
O=C(O)c1ccc(-n2[nH]c3c(c2=O)CCCC3)cc1,6,94,.,.,i,1,.
COc1ccc(OC)c(NC(=O)COC(=O)CN(C)S(=O)(=O)c2ccc(C)cc2)c1,-5,113,23,115,i,0.95,-1.0
CC1CCCN(CCOc2ccc(Br)cc2)C1 (configuration not stated),-8,111,5,85,i,0.74,-0.9
COc1ccc(N(Cc2cc3ccc(C)cc3[nH]c2=O)C(C)=O)cc1,-9,93,-10,131,i,0.96,-0.9
Cc1ccc(-c2nnn(CC(=O)N(Cc3cccs3)C(C(=O)NC3CCCCC3)c3ccco3)n2)o1 (configuration not stated),5,97,-66,73,?,.,-0.2
O=C(CCC1N=C2c3ccccc3N=C(SCc3ccc(Cl)cc3)N2C1=O)NCc1ccco1 (configuration not stated),-13,121,-35,181,i,0.86,-0.8
Cc1cc(-c2ccccc2)n2nc(N)nc2n1,.,101,.,.,i,1,.
COc1ccccc1NC(=S)NCCSc1ccc(Cl)cc1,2,107,-56,74,i,0.99,-0.5
Cc1ccc2cccc(NC(=O)c3ccc(Br)o3)c2n1,-3,99,39,79,i,1,0.1
CC(C)c1nnc(NC(=O)CSc2ncn[nH]2)s1,-7,89,.,.,i,1,-2.1
COC(=O)C1=C(C)N(c2ccc(Cl)c(Cl)c2)C(=O)C1,3,101,69,102,i,0.7,-1.0
COc1ccc(Nc2nc(C(C)(C)C)nc3c2nnn3Cc2ccccc2Cl)cc1OC,-7,.,-197,54,?,.,-0.4
CCn1c2ccccc2c2cc(NC(=O)c3cc(C)on3)ccc21,-5,100,.,.,i,0.76,.
O=c1cc(-c2ccccc2)[nH]c2cc(Cl)ccc12,-1,104,-257,6,i,0.64,-1.4
CCOC(=O)N1CCN(c2cc(=O)n(-c3ccccc3Cl)c(=O)[nH]2)CC1,2,102,.,.,i,0.91,-0.9
Cc1c(C(=O)OCC(=O)N(C)C2CCS(=O)(=O)C2)oc2ccc(Br)cc12 (configuration not stated),.,100,.,.,i,0.95,.
COC(=O)c1c(-c2cccc(C)c2)csc1N,-1,89,-233,76,i,1.1,-3.6
CC(=O)Nc1cccc(-c2nnc(SCC(=O)n3c4c(c5ccccc53)CCCC4)n2C)c1,-2,104,27,110,i,1.1,-1.1
Cc1ccc2nc3c(cc(C(=O)NC4CCCC4)c(=N)n3CCCn3ccnc3)c(=O)n2c1,6,83,-5,51,i,0.91,.
O=C1CC(c2ccccc2)CC(O)=C1C=NCc1ccc(Cl)c(Cl)c1 (configuration not stated),-4,100,.,.,.,.,-3.8
Cc1ccc(Cn2ccc(NC(=O)c3cc(C4CC4)on3)n2)cc1,.,98,.,.,i,0.97,.
CCC1(C)Cc2nc3sc(C(=O)O)c(N)c3cc2CO1 (configuration not stated),2,102,.,.,i,1.1,-1.2
CCOc1cc(N2CCOCC2)c(OCC)cc1NC(=O)c1ccc(C)cc1,-1,102,37,102,i,0.84,.
Cn1cccc1/C=C1/SC(=O)N(CC(=O)N2CCCC2)C1=O,4,104,.,.,i,0.97,.
CCOC(=O)c1oc2ccccc2c1NC(=O)CCl,.,104,.,.,i,0.94,.
CCOCCCN1C(=O)C(O)=C(C(C)=O)C1c1cccs1 (configuration not stated),2,103,-75,80,i,1,-1.4
COc1cccc(/C=N/Nc2ncnc(Cl)c2N)c1O,5,182,26,36,i,0.58,-0.5
COc1ccc(CN(C)CC(=O)NC(=O)NCc2ccccc2)cc1OC,-1,108,7,100,i,1.1,0.8

Next section
mol,PKD1 kinase inh,RGS16-Gao HTS,INS promoter inh,INS promoter inh cell count,HSV augment,HSV augment primary fold,GALR2 ag
CCc1ccc[n+](-c2nc([O-])sc2C=O)c1,.,102,.,.,i,1,.
CCn1c(SCC(=O)C(C)(C)C)nnc1-c1ccccc1OC,-8,104,0,123,i,0.89,-1.3
Cc1ccc([N+](=O)[O-])c(C(=O)Nc2cccnc2Cl)c1,5,101,.,.,i,1,.
COc1cc(S(=O)(=O)N2CCOCC2)ccc1NC(=O)COC(=O)c1ccccn1,1,98,-36,62,i,0.9,-0.6
CC1SC(=NC(=O)C(C)N2C(=O)c3ccccc3C2=O)NC1=O (configuration not stated),-9,68,-280,116,i,1,-1.7
CC1CCN(C(=O)COc2cccc3c2CCN(Cc2ccccc2)C3=O)CC1,-7,102,-8,86,.,.,.
Clc1ccc(CSc2nncn2-c2ccccn2)cc1,-6,100,.,.,i,1,0.5
Cc1ccccc1NC(=S)NCCc1ccccn1,-5,102,-50,122,i,0.7,-1.9
Cc1cccc(C)c1OCCSc1n[nH]c(N)n1,7,103,.,.,i,0.91,-0.1
CCCC1c2ccc(C)n2CCN1C(=O)Nc1ccc(F)cc1 (configuration not stated),-15,116,27,115,i,1.1,-1.7
COC(=O)CCN(C(=O)c1ccc(OC(C)=O)cc1)c1ccccn1,-7,105,-76,143,i,1,0.2

In the list so far, 9 contain an aryl thioether with sulfur outside any ring.
mol,PKD1 kinase inh,RGS16-Gao HTS,INS promoter inh,INS promoter inh cell count,HSV augment,HSV augment primary fold,GALR2 ag
COC(=O)C(C)Sc1nc2c(c(=O)n(C)c(=O)n2C)n1Cc1cccc(C)c1 (configuration not stated),-7,98,-3,90,i,1,0.2
O=C(CSc1nc2ccccc2o1)N1CCCC1,3,100,0,62,i,0.92,-1.5
CCC(=O)Nc1ccc(-c2nnc(SCC(=O)N3CCCCC3)n2C)cc1,0,100,-3,135,i,0.95,-1.1
COc1ccccc1NC(=S)NCCSc1ccc(Cl)cc1,2,107,-56,74,i,0.99,-0.5
CC(C)c1nnc(NC(=O)CSc2ncn[nH]2)s1,-7,89,.,.,i,1,-2.1
CC(=O)Nc1cccc(-c2nnc(SCC(=O)n3c4c(c5ccccc53)CCCC4)n2C)c1,-2,104,27,110,i,1.1,-1.1
CCn1c(SCC(=O)C(C)(C)C)nnc1-c1ccccc1OC,-8,104,0,123,i,0.89,-1.3
Clc1ccc(CSc2nncn2-c2ccccn2)cc1,-6,100,.,.,i,1,0.5
Cc1cccc(C)c1OCCSc1n[nH]c(N)n1,7,103,.,.,i,0.91,-0.1
